Assay outcomes: PubChem, several laboratories
Bfl-1 A1 inh – caspase 3/7 activation in MEF A1-2A-BIM cells, primary screen, A1 inhibitor project, cell-based, luminescence, HTS; Caspase-Glo 3/7 luminescence, 3 h; percent of clofoctol response, vehicle zero; caspase activation, % (concentration not given with the values); 0.066% of 330,000 active; AID 2462, 2010;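 active = over half of replicate activation scores above 10%, or exactly half above 10 with the replicate mean above 10; inconclusive = replicate mean below 10 yet half the replicates above 10; inactive = over half of replicates below 10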;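 note: wells of about 30 µL received 50 nL stock; many hits fall short of the cut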
Beta cell apopt – inhibitors of cytokine-induced beta cell apoptosis, primary screen, luminescence; INS-1E cytokine-induced death, ATP luminescence, 48 h; percent of positive-control rescue, neutral wells zero; protection from apoptosis, % (no concentration beside the values); 0.8% of 300,000 active;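 active = all replicates at 75% or more, or half of them and the mean; inconclusive = half reach 75% but not the mean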;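 note: 0% = cytokine-treated negative control wells and 100% = positive control rescue; higher means more ATP so stronger rescue from cytokine killing; wells of about 40 µL received 100 nL stock; the first replicate is given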
RanGTP-Impb inh – inhibitors of RanGTP-importin-beta interaction, primary screen, biochemical, FRET, CFP-Ran, YFP-importin-beta, homogeneous; Ran GTPase (GTP-bound) - importin-beta complex; cell-free CFP-Ran/YFP-importin-beta FRET ratio; inhibition, % (concentration not given with the values); 1.1% of 300,000 active;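 active = most replicates above 15%; inconclusive = exactly half above 15%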;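 note: 0% = DMSO wells and 100% = Ran loaded with GDP instead of GTP; wells of about 40 µL received 100 nL stock; the first replicate is given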
T cruzi inh – inhibitors of intracellular T. cruzi growth, primary screen, luminescence, NIH3T3 host cells; 1.4% of 300,000 active; AID 1885, 2009; inhibition, % (concentration not given with the values); T. cruzi beta-gal in NIH3T3, 90 h;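 active = mean inhibition across valid replicates above about 55%, limit read from the data; inconclusive = mean below that limit but half or more replicates reach it; inactive = mean below it, under half of replicates reach it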;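 note: signal also drops with host cell toxicity which is not excluded here; 0% = plate median of DMSO wells and 100% = zero luminescence signal; higher percent means less beta-gal luminescence so fewer parasites; stock transfer was 50 nL into about 50 µL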
Calb FLC – C. albicans growth inhibition with fluconazole, primary screen, CaCi-2 strain, Alamar Blue fluorescence. C. albicans CaCi-2 (fluconazole-resistant clinical isolate) + fluconazole, 48 h. growth inhibition, % (test concentration not listed). 0.57% of 300,000 active. AID 1979, 2009;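 active = most replicates above 75%; inconclusive = exactly half above 75%; inactive = most below 75%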;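 note: all wells also contain fluconazole at 8 µg/ml as a sub-toxic cotreatment; 0% = median of DMSO wells and 100% = median of geldanamycin control wells; wells of about 8 µL received 7.5 nL stock; the first replicate is given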
AF4-AF9 inh – inhibitors of AF4 peptide binding to AF9, primary screen, biochemical, AlphaScreen, biotin-AF4 peptide, FLAG-AF9, single point; Protein AF-9 (Homo sapiens), P42568; inhibition, % at 10 µM; 0.47% of 350,000 active;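 active = every replicate reaching a set inhibition limit, whatever the replicate mean, cut at about 25% in these data; inconclusive = mean inhibition reaches that limit but some replicates miss it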;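 note: 0% = plate neutral control median and 100% = total signal loss; the record names both 10 and 1 µM as test concentration; the first replicate is given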
Target sequence (P42568 whole entry, looked up): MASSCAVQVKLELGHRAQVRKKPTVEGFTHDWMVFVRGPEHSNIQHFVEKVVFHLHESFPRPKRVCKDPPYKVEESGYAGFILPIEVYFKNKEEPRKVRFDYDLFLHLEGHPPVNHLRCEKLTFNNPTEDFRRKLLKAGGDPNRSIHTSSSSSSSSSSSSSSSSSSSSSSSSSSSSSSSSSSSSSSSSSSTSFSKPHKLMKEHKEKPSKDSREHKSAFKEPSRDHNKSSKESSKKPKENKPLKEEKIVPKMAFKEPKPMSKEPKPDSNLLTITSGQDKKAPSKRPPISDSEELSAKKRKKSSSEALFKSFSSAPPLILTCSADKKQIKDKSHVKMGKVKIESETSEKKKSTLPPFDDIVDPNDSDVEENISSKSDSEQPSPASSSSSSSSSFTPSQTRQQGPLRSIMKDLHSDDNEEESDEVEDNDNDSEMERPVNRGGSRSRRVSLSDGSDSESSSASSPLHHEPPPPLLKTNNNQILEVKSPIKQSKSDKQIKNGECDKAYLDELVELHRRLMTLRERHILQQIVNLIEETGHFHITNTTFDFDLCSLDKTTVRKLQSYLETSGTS
Ecoli rRNA inh – reduced GFP signal of wild-type E. coli, primary screen, bacterial rRNA inhibitor project, GFP/RFP fluorescence, OD600, single point; E. coli WT GFP vs humanized-ribosome RFP mutants, 24 h; hits give low values; DMSO median 0, no signal -100; GFP signal change (wild-type ribosome), % (no concentration beside the values); 1.6% of 350,000 active; AID 720706, 2013;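 active = significant combined selectivity score with lowered wild-type GFP, culture density cut under 30%, mutant RFP and density less affected; inactive = any of these conditions unmet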; note: one replicate is shown; some compounds called inactive have numbers as strong as hits
Vif TR-FRET – inhibitors of Vif binding to APOBEC3G peptide, primary screen, biochemical, TR-FRET, GST-Vif 1-94, biotin-A3G peptide, dose response retest (AID 1117319); TR-FRET GST-Vif / biotin-A3G peptide binding; higher % means a stronger effect; test concentration not given here; strong numbers were not always called active; one-dose inhibition, %; IC50 in µM for titrated hits; 0.57% of 260,000 active;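 active = above the screen mean plus three standard deviations and confirmed in dose response; inconclusive = results disagree or hit not tested in dose response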;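 note: Vif residues 1-94 fused to GST binding biotinylated APOBEC3G peptide 110-148; 0% = full assay without inhibitor and 100% = GST in place of GST-Vif; retest series ran down from 100 µM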
Ecoli rRNA inh OD600 – further read-out of Ecoli rRNA inh, marked with its call; OD600 change, %; measured here: OD600 growth;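 optical density of the mix in the first replicate; 0 = DMSO median and -100 = no signal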
Ecoli rRNA inh RFP – further read-out of Ecoli rRNA inh, marked with its call; RFP signal change, %; measured here: RFP humanized mutant strains;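 first replicate; 0 = DMSO median and -100 = no signal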
Active calls of the source: *; ? = inconclusive; . = not tested or not shown; & = joins results of further samples. Some of the compounds tested, so the mix of outcomes need not match the whole.

SMILES	Bfl-1 A1 inh	Beta cell apopt	RanGTP-Impb inh	T cruzi inh	Calb FLC	AF4-AF9 inh	Ecoli rRNA inh	Ecoli rRNA inh OD600	Ecoli rRNA inh RFP	Vif TR-FRET
CCn1c(/C=C/Nc2ccccc2)[n+](CC)c2cc(Cl)c(Cl)cc21	-1.0	4.3	5.5	-22.8	-7.5	4.3	-10.0	3.5	-2.4	7.0%
CN1CCN(C(=O)C2=C[C@@H](c3coc4ccccc4c3=O)C[C@@H](OCc3ccc(CO)cc3)O2)CC1	2.3	4.5	4.4	-4.0	-5.3	1.9&1.4	4.2	9.2	-16.4	.
C/C=C/c1ccc(OCCCCOc2ccccc2C(C)=O)c(OC)c1	-0.1	0.7	0.1	-3.3	-17.7	-11.3	11.7	7.3	-0.3	-7.6%
COc1ccc(/C=C(\NC(=O)c2ccc(OC)cc2)C(=O)Nc2ccc(C(=O)O)cc2)cc1	1.5	-2.3	4.8	-11.1	0.6	3.2	-3.2	5.7	0.4	-9.7%
Cc1noc(C)c1COC(=O)c1cc(C)n(-c2ccccc2)c1C	-0.4	-0.8	?	19.5	1.1	.	.	.	.	2.9%
COC(=O)c1ccc(-c2noc(CN(Cc3ccccn3)CC3CCCO3)n2)cc1 (stereo unspecified)	0.2	1.3	6.1	-4.3	-5.0	-0.4	-0.4	0.4	-1.5	.
O=C1c2ccccc2C(=O)N1CN(C(=O)COc1ccccc1)c1ccc(F)cc1	0.2	-6.4	0.4	4.7	3.5	-4.4	-8.4	-4.5	2.1	?
COc1cc2ccccc2cc1C(=O)Nc1ccc(N2CCOCC2)cc1	-0.5	5.3	-1.9	-4.8	-17.9	-0.5	4.5	3.9	0.2	.
CC(C)CCSc1ncnc2c1oc1nc3c(cc12)COC(C)(C)C3	.	.	3.6	-25.7	9.2	-38.4	6.6	-1.2	-5.0	1.7%
CCCCOC1CC(c2ccc(OCc3ccc(OC)cc3)c(OC)c2)N(C)O1 (stereo unspecified)	-0.4	1.9	-1.9	18.8	2.1	-1.6	-10.2	-7.7	-2.5	.
CCCCc1ccc(NC(=O)Cn2c(=O)c(N3CCCCC3)c(N)n(C)c2=O)cc1	0.5	5.6	.	.	.	-2.7	4.4	5.4	-2.4	-3.3%
COc1ccc(/C=N/NC(=O)CC(=O)NCc2cccnc2)cc1	0.6	2.1	5.2	6.1	2.3	.	2.4	12.3	-1.5	31.2%
O=C(C1CCCN(Cc2ccccc2)C1)N1CCc2ccccc2C1 (stereo unspecified)	0.2	-2.4	-4.0	45.4	-8.0	.	.	.	.	-6.2%
Cc1cccc(NS(=O)(=O)c2ccc(NS(=O)(=O)c3cccs3)cc2)c1	0.7	-3.3	3.2	3.3	-3.6	-5.7	-2.8	-24.4	-4.7	.
Cc1ccc(OC(C)C)c(CN(CCO)CCO)c1	-7.2	-6.1	0.1	-0.2	-1.3	.	.	.	.	-0.7%
O=C(CCc1ccccc1)NNC(=O)c1ccccc1Cl	0.9	1.4	2.1	-4.4	-4.8	-4.1	5.4	0.7	-2.7	.
CCc1ccc(OCC(=O)NC(NC(=S)Nc2ccccc2)C(Cl)(Cl)Cl)cc1 (stereo unspecified)	-0.7	8.6	-2.5	5.1	-2.3	.	.	.	.	.
CC(=O)O[C@]1(C(C)=O)CC[C@H]2[C@@H]3C=CC4=CC(=O)C=C[C@]4(C)[C@H]3CC[C@@]21C	0.1	1.0	4.6	-12.6	-3.4	0.1	-3.3	-12.1	-2.9	-8.0%
CCOC(=O)N1CCN(C(=S)Nc2cccc(C)c2)CC1	-0.7	-1.9	2.9	-10.0	20.4	.	.	.	.	6.0%
O=C(NCc1ccc(Cl)cc1Cl)c1ccccn1	0.3	-9.9	.	.	.	.	-8.4	-3.0	5.8	7.7%
CC(=O)Nc1csc2ccccc12	0.4	-6.0	-0.8	-6.1	-13.2	-1.7	1.7	5.0	-6.3	2.4%
COc1ccc(-c2c(C)n([O-])c(C)c(-c3ccccc3)[n+]2=O)cc1OC	-0.1	-2.5	0.6	-11.1	-16.1	.	.	.	.	-6.7%
CCOC(=O)c1ccc(NC(=O)Cn2nc(C)c3ccccc3c2=O)cc1	1.7	-3.2	0.3	6.5	0.2	4.3	2.4	3.8	0.7	-4.2%
O=C(NCC1CCN(S(=O)(=O)c2ccccc2)CC1)Nc1ccc(F)cc1F	1.2	1.0	2.4	.	0.7	-0.1	.	.	.	4.4%
CC1(C)CC(=O)CC(C2(O)C(=O)N(Cc3ccccc3)c3ccccc32)O1 (stereo unspecified)	-0.2	-7.2	1.8	-9.2	-15.0	1.7	8.5	7.6	6.3	11.9%
SMILES	Bfl-1 A1 inh	Beta cell apopt	RanGTP-Impb inh	T cruzi inh	Calb FLC	AF4-AF9 inh	Ecoli rRNA inh	Ecoli rRNA inh OD600	Ecoli rRNA inh RFP	Vif TR-FRET
CCCCOc1ccc(C(=O)NCC(=O)N(C)CC(=O)Nc2ccc(N3CCOCC3)cc2)cc1	0.4	.	-1.7	-9.4	8.4	2.0	4.5	7.6	0.7	3.7%
O=C(CN1CCN(Cc2ccc(Cl)cc2)C1=O)NCc1cccs1	1.0	-5.7	-5.3	0.1	15.2	.	-3.1	-4.5	-6.1	14.9%
COc1ccccc1NS(=O)(=O)CC12CCC(CC1=O)C2(C)C (stereo unspecified)	-0.4	-4.1	0.5	-4.2	0.1	.	.	.	.	-3.3%
COc1cc2cc(C(c3nnnn3C3CCCCC3)N(C)C3CCCCC3)c(=O)[nH]c2cc1OC (stereo unspecified)	-0.3	.	-9.6	30.8	26.4	.	.	.	.	15.8%
N=C1/C(=C\c2ccc(Br)o2)C(=O)N=C2SC(CC(=O)N3CCOCC3)=NN12	-0.3	-0.4	-1.3	0.5	.	-1.8	4.2	7.8	13.6	.
CSc1nnc2n(C)c3c(c(=O)n12)C1(CCCC1)Cc1ccccc1-3	0.9	-2.6	0.3	41.4	36.8	.	3.2	7.4	3.7	0.4%
CCOC(=O)c1ccc(NC(=S)N2CCN(c3ccccn3)CC2)cc1	0.7	-2.9	1.6	-20.2	-14.2	1.0	2.8	4.8	-3.7	.
Cc1cc(C)n(-c2ccc(Cl)c(C(=O)OCC(N)=O)n2)n1	0.2	-1.4	0.9	-6.0	3.3	.	.	.	.	-1.0%
NCCCNC(=O)c1ccc(/C=N/O)nc1	-0.4	-0.7	-2.9	-3.6	-23.6	0.1	.	.	.	-4.9%
Cc1nc2ccccc2c2c1C(=O)NC2=O	0.8	-9.9	1.1	4.1	-2.2	.	.	.	.	21.4%
CCOc1ccc(Cc2c(Cl)nc(SC)nc2OC)cc1	0.5	2.4	2.8	6.2	-4.1	.	.	.	.	12.1%
CN(C(=O)C1CCOC1)c1nnc(-c2cnccn2)s1 (stereo unspecified)	-0.1	-4.8	-5.2	2.4	1.8	.	.	.	.	0.2%
Cn1c(SCC(=O)c2ccc3c(c2)Cc2ccccc2-3)nnc1-c1cccc(N)c1	0.0	-6.2	0.9	1.0	-32.2	-2.4	-5.4	18.7	0.1	-3.4%
Cc1ccc(NC(=O)CCc2c(C)nn(-c3ccc(N4CCOCC4)nn3)c2C)c(C)c1	0.5	-5.4	-1.7	-3.1	-1.4	-1.8	4.5	9.0	-1.0	.
Cc1ccc(S(=O)(=O)N(CC(O)CN(C)C)c2ccccc2)cc1 (stereo unspecified)	-0.1	-0.8	3.4	2.7	0.4	.	.	.	.	0.5%
Cc1ccc(NC(=O)CCCN2C(=O)NC(C)(C)C2=O)cc1	0.0	-4.9	.	.	.	0.1	8.7	18.4	-2.3	-13.5%
c1ccc2oc(-c3[nH]ncc3CN3CCC(N4CCSCC4)CC3)cc2c1	0.0	3.5	-4.3	6.2	-30.9	5.3	2.7	-1.2	-1.5	-4.7%
Cc1csc(NC(=O)CCc2ccc(S(=O)(=O)N3CCOCC3)cc2)n1	0.5	0.1	-2.2	10.4	11.1	.	.	.	.	-2.8%
C=CCN(CC=C)C(=S)NC(=O)c1ccc(C)c(Br)c1	0.8	-0.5	2.0	-37.8	-40.2	.	.	.	.	4.0%
COc1ccc(OC)c(-n2c(SCC(=O)Nc3cc(C)on3)nnc2-c2c[nH]c3ccccc23)c1	-0.9	-4.6	-0.1	5.8	1.5	7.3	-2.1	-8.2	12.9	12.5%
Cc1nnsc1SC(C)C(=O)O (stereo unspecified)	-0.7	-3.9	-4.0	0.4	-22.1	.	.	.	.	-9.5%
Cc1cccc(N2CCN(CC(O)COc3ccc(Cl)cc3)CC2)c1 (stereo unspecified)	0.6	-0.2	-1.8	-8.1	-9.6	-2.8	5.8	-4.6	8.5	73.8%
O=C(Nc1ccc(Cl)cc1)C1CCCN(c2cnccn2)C1 (stereo unspecified)	-0.2	1.8	-6.2	27.4	-5.1	-13.8	6.1	0.1	-2.4	.
O=C(Cc1ccccc1)NNC(=S)Nc1ccc(Cl)cc1	0.2	-3.0	0.7	-4.7	36.3	0.0	-15.7	-10.0	-7.2	.
Oc1c(Cl)cc(Cl)cc1C=Nc1cc(C(F)(F)F)ccc1N1CCc2ccccc2C1	-9.4	26.6	1.0	8.9	24.2	-1.5	-49.9	-69.2	-6.2	-3.3%
SMILES	Bfl-1 A1 inh	Beta cell apopt	RanGTP-Impb inh	T cruzi inh	Calb FLC	AF4-AF9 inh	Ecoli rRNA inh	Ecoli rRNA inh OD600	Ecoli rRNA inh RFP	Vif TR-FRET
CCOc1ccc(N)c(SSc2cc(OCC)ccc2N)c1	-0.4	-0.9	-2.0	7.6	-4.8	1.3	2.2	3.9	2.1	4.0%
CCCCOC(=O)Nc1cccc(C(C)=O)c1	-0.7	-1.5	-2.9	-7.4	-17.1	.	.	.	.	-3.3%
Nc1c(C(=O)Nc2ccc(F)cc2)sc2nc(-c3ccco3)ccc12	-1.5	-5.3	-31.0	-30.6	-9.8	.	.	.	.	?
COc1cc2c(C#CCCCO)c(-c3ccsc3)oc(=O)c2cc1OC	-0.5	12.3	.	.	.	4.8	-6.1	5.4	12.8	.
COCCCNC(=S)NNC(=O)c1ccc2c(c1)OCO2	0.7	-12.8	5.3	-16.8	-13.8	.	21.1	16.8	0.8	10.2%
CSCC[C@H](NC(=O)[C@@H]1Cc2ccccc2CN1)C(=O)Nc1ccc2c(c1)OCCO2	-0.2	1.2	2.2	4.7	.	-2.3	1.2	9.8	-0.5	.
COc1ccc(C(=O)N2CCC(C(=O)Nc3ccc4c(c3)OCO4)CC2)cc1	0.4	6.7	1.8	6.3	-9.2	5.5	6.8	4.0	0.6	-1.1%
